# Screening data (PubChem BioAssay)
# ClpP mod: qHTS Assay for Activators of ClpP | ATP-dependent Clp protease proteolytic subunit (Bacillus subtilis (strain 168)), P80244 | purified B. subtilis ClpP, FRET peptide cleavage, 20 min | Potency, µM (doses to about 57.5 µM), for inactives: at the top dose activity change, negative = active | 1.9% of 340,000 active | AID 651965, 2013; active = well fitted falling curve with a large enough effect; inconclusive = small, poorly fitted or top-dose-only effect; inactive = no such curve, though single readings can be large or run the other way; note: potency is the fitted concentration of half-maximal effect; the source files actives as falling curves though it sought activators and does not explain the sign; nearly all actives have a fitted effect of over 65% in size; many hits overshoot -100%
# Target sequence (P80244 whole entry, looked up): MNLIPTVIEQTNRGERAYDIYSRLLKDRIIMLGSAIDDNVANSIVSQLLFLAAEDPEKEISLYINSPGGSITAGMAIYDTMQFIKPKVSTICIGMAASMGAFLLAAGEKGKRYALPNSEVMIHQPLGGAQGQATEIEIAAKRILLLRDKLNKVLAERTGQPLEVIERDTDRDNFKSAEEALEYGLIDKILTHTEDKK
#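 FRET quenching reversal measured ClpP activation: 10 microg/mL B. subtilis ClpP at pH 8 with the FRET-FV decapeptide, read at 430 nm after 320 nm excitation. The 20-min minus 0-min signal was scaled between DMSO/no-enzyme wells and ADEP (5.8 microM final).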
# gsp antagonist: antagonists of gsp mutant (McCune-Albright syndrome); AID 624288; Potency, µM (doses to about 76.9 µM), without a hit: top-dose activity change, negative = inhibition, most hits filed as inhibitors; gsp-mutant cells, cAMP HTRF, 30 min; control for the full effect not named in the record; 0.4% of 340,000 active; active = falling curve of any shape with a large fitted effect; inconclusive = falling curve, mostly with a smaller effect; inactive = flat or rising curve; cell line not stated here;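 note: intracellular cAMP measured with PDE inhibitor Ro 20-1724 present during compound exposure; potency is the fitted concentration of half-maximal effect; % is set by controls: 0 for no effect and ±100 for the full control effect; nearly all actives have a fitted effect of over 65% in size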
#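 Cells, 2000/well, grown 16–24 h in DMEM 10% FBS with 0.5 mg/ml G418, then compounds plus […] (300 uM addition stock), 30 min at 37C. cAMP read by HTRF (cAMP-d2 and anti-cAMP antibody-K in lysis buffer) after 30 min RT.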
# D2 potentiator: human D2 receptor positive allosteric modulation | DiscoveRx D2 beta-arrestin cells, luminescence, 90 min; 100% = 57 uM dopamine signal | 0.23% of 360,000 active | potentiation, % (no concentration beside the values); active = potentiation of 50% or more; inconclusive = 30% to 50%; inactive = 30% or less;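 note: compound concentration not given in the record; tested on top of an EC20 dose of dopamine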
# Target sequence (P14416 whole entry, looked up): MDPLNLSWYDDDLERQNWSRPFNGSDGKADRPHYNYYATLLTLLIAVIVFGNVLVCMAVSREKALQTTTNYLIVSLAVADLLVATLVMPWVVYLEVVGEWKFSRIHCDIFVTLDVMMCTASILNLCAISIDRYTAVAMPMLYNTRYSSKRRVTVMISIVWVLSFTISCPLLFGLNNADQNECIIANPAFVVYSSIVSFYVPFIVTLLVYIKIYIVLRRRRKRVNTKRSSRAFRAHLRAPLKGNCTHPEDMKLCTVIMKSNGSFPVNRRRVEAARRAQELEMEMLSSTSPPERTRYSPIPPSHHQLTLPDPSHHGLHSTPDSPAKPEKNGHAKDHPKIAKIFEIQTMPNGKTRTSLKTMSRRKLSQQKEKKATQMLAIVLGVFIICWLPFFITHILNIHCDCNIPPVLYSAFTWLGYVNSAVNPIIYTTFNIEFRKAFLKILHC
#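 D2 cells co-treated with compound plus 50 nM dopamine (EC20) for 90 min at 37 deg C to detect potentiation. Beta-arrestin recruitment was read as enzyme-fragment luminescence after 1 h at ambient temperature. Full response was set by 57 uM dopamine.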
# Menin-MLL FL inh: inhibitors of human menin-MLL interaction, wild-type MLL peptide; Fluorescence polarization, fluorescein-MLL peptide displacement from menin; FP activity change, % at 61.4 µM; 290,000 tested, under 10 active; AID 1766; inconclusive = falling polarisation curve, or a change in total fluorescence; inactive = total fluorescence flat and polarisation flat or rising; no compound was filed as active; the % refers to the polarisation; negative = inhibition;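 note: % of control where 0% means no effect; inhibitors lower the polarisation; unlabelled MLL peptide was the positive control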
# Sfp PPTase inh: Sfp phosphopantetheinyl transferase inhibition. Biochemical Sfp PPTase activity, qHTS. Q9F4F7. Potency, µM, for the others: max response, negative = inhibition, hits mostly inhibitors. 3.5% of 310,000 active; active = well fitted inhibition curve with a large enough effect; inconclusive = small, poorly fitted or top-dose-only effect, or another doubt; inactive = no such curve, though single readings can be large or run the other way;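 note: the enzyme is Sfp with the accession as filed and its product quenches rhodamine fluorescence; potency is the fitted concentration of half-maximal effect; 0% = enzyme reaction without inhibitor and -100% = no enzyme wells; top concentration of the series not given in the record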
#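 Fluorescence-quenching assay: 15 nM Sfp-PPTase preincubated 15 min at room temperature with compound, then 5 uM rhodamine-CoA and 12.5 uM BHQ-2-labelled YbbR peptide added. Fluorescence (ex 525/em 598 nm) read at start and after 30 min; difference gives rate.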
# gsp agonist: activates gsp, the McCune-Albright syndrome mutation; Potency, µM (highest dose often 76.9 µM), without a hit: at the highest dose activation (cAMP increase), usual class: activators; gsp mutant cells, cAMP HTRF, 30 min; control for the full effect not named in the record; 0.13% of 340,000 active; active = well fitted activation curve with a large enough effect; inconclusive = small, poorly fitted or top-dose-only effect, or another doubt; inactive = no such curve, though single readings can be large or run the other way; cell line not stated here;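 note: phosphodiesterase inhibitor Ro 20-1724 added with compounds to block cAMP breakdown; potency is the fitted concentration of half-maximal effect; nearly all actives have a fitted effect of over 60% in size; about a fifth of the inactives were tested at one dose only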
#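 Cells in DMEM/10% FBS with G418 were pretreated with compounds in DMSO plus […] (300 uM stock) for 30 min at 37C. cAMP was measured by HTRF (cAMP-d2 plus anti-cAMP antibody-K) after 30 min at room temperature.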
# TRPV1 PAM: enhances activation of the human vanilloid receptor TRPV1 | Q8NER1 | TRPV1-expressing cells, Fluo-8 calcium influx, capsaicin EC20 potentiation; host cell line not named in the record; control for the full effect not named in the record | potentiation, % at 8.33 µM | 0.02% of 320,000 active; active means potentiation above 80%; inconclusive means 30% to 80%; inactive means below 30%; note: 0% is about no effect
#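 TRPV1-expressing cells were cultured overnight at 35.5C and loaded with Fluo-8 calcium dye for 40 to 90 min at room temperature. After a 10 s baseline, compound was added and calcium influx was read kinetically for 3 min (ex 480/em 520 nm).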
# Active calls of the source: *; u = inconclusive; x = not tested or not shown; & = joins results of further samples; [ ] = another dose, or the depositor's remark. Random draw from the library; 5.1% or so of the library scored in one or more.
SMILES,ClpP mod,gsp antagonist,D2 potentiator,Menin-MLL FL inh,Sfp PPTase inh,gsp agonist,TRPV1 PAM
C/C(CC(=O)Nc1ccccc1C)=N\NC(=O)Cc1csc(N)n1,-0.4%,12.9%,8.2,5.8,19.7%,-17.1%,-11.0
CN(C)c1ccnc(Oc2ccc(F)cc2)c1C#N,1.3%,-1.7%,9.1,-3.4,8.7%,4.8%,-5.4
COc1cc(/C=C(/C#N)c2nc3ccccc3c(=O)[nH]2)ccc1O,0.4%,1.5%,-23.8,u,5.4%,-25.0%,3.9
Nc1nccnc1C(=O)N/N=C/c1ccco1,-25.6%,0.8%,-16.9,2.9,-6.6%,1.3%,6.6
Cc1ccc(CN2CCS(=O)(=O)CC2)cc1,-1.8%,4.1%,-25.1,-0.5,6.7%,18.1%,8.2
Cc1cccc(CSc2nc3c(c(=O)n2C)SCC3)c1,x,-20.2%,-1.6,-0.6,50.1µM*,22.9%,19.5
NC(=O)c1cc(N)ccc1N1CCCCC1,x,4.0%,-5.4,0.0,-2.5%,11.3%[15.4 µM],25.1
CSc1ccc(CCNC(=O)C2CCCN(S(=O)(=O)N3CCOCC3)C2)cc1 (stereo not given),0.0%,1.3%,-9.2,x,10.9%,-0.4%,14.2
CCOC(=O)c1sc(=S)n(CC)c1N,-0.4%,15.4%,-4.8,0.4,3.0%,-51.7%[inhibitor],8.6
O=C(O)C1c2ccccc2C(=O)N(Cc2ccc(F)cc2)C1c1ccncc1 (stereo not given),-1.5%,5.8%,-12.8,2.8,3.8%,-7.0%,6.7
N#Cc1cccnc1N1CCN(C(=O)c2cccc3c2C(=O)c2ccc(-c4ccc(Cl)c(C(F)(F)F)c4)cc2S3(=O)=O)CC1,-1.6%,u,-5.4,x,x,x,x
O=C(CSc1ccc2ccccc2n1)Nc1nsc(-c2ccc(Cl)cc2)n1,-0.2%&0.9%,4.2%,-4.5,0.6,-2.7%,-4.1%,-6.6
O=C(CSc1nc2ccccc2[nH]1)NCC1CCCO1 (stereo not given),x,18.9%,-6.0,-1.4,-2.8%,8.8%[15.4 µM],-9.8
COc1ccccc1CCN1CCCC(CN(C)C(=O)c2ccoc2)C1 (stereo not given),-0.7%,9.2%,-27.3,x,6.1%,11.3%,-2.4
CC(C)(Oc1ccc(Cl)cc1)C(=O)OCC(=O)N1CCCC1,-28.2%,5.6%,1.8,-2.6,24.9%,1.9%,-30.4
CN(Cc1ccccc1)C(=O)c1ccccc1NC(=O)c1ccco1,1.1%,1.9%,7.6,-1.1,10.4%,11.9%,-1.7
CCOC(=O)/C(=C/Nc1ccc(F)cc1)[N+](=O)[O-],-0.9%,6.4%,-22.8,-1.6,-0.7%,-1.8%,29.4
O=C(O)C12CC3CC(C1)CC(n1cnc(Cl)n1)(C3)C2,3.9%,4.0%,-10.4,-0.9,14.2%,36.3%,-4.6
CC(=O)[C@@H]1[C@@H](C(=O)c2ccc(C)cc2)[C@]2(C(=O)Nc3ccccc32)[C@H]2C=Cc3cc(F)ccc3N12,-3.4%,5.7%,-16.4,u,3.98µM*,6.2%,9.7
O=c1[nH]cnc2c1cnn2Cc1ccccc1Cl,-0.1%,-3.6%,-12.3,u,-0.9%,-9.5%,-7.2
Cc1oc(CN2CCOCC2)cc1C(=O)O,x,-1.6%,-6.3,-2.3,11.3%,20.8%[15.4 µM],4.6
O=C(O)c1nnn(-c2ccc(F)cc2F)c1-c1ccccc1,-2.9%,7.1%,0.5,-5.4,14.8%,3.6%[15.4 µM],-4.9
CCN(CC(=O)NCc1cccs1)C(=O)c1ccc(Cl)c(Cl)c1,-0.9%,-10.6%,-5.6,x,x,-12.0%,x
O=C(/C=C/c1ccccc1)NC1CCS(=O)(=O)C1 (stereo not given),1.2%,12.3%,-6.6,5.5,11.1%,2.8%,3.7
O=S(=O)(NCCCc1ccccc1)c1ccc(Br)cc1,0.9%,11.3%,-11.7,x,x,-20.3%,x
COC(=O)N/N=C/c1c(C)cc(C)cc1C,-1.2%,4.5%,-17.3,0.5,0.7%,-1.7%,3.7
OC(COc1ccc2c(c1)OCO2)CN1CCc2ccccc2C1 (stereo not given),-8.1%,-0.8%,-31.6,-1.2,6.6%,-42.6%[inhibitor],0.4
O=C(Nc1ccc(-c2ccc3nncn3n2)cc1)C1CCCCC1,x,4.7%,0.4,-3.0,-17.1%,18.6%,6.5
COc1ccc(NC(=O)c2cc(-c3ccccc3)on2)cc1,1.1%,4.5%,-3.3,1.5,u,-25.0%,-26.4
Cc1ccoc1C(=O)N1CCCC(CCC(=O)N2CCN(c3ccccn3)CC2)C1 (stereo not given),x,3.5%,-0.4,-1.1,-5.8%,4.2%[15.4 µM],6.2
CCc1ccc(OCC(=O)NNC(=O)C2CCC2)cc1,-6.3%,8.1%,-21.5,x,x,7.4%[15.4 µM],0.6
O=C(Cn1nnc(-c2cccs2)n1)NNC(=O)c1ccccc1Cl,x,5.8%,-2.9,-0.3,1.1%,27.6%,12.1
O=C(NC(=S)NCc1cccnc1)c1ccc([N+](=O)[O-])cc1,-1.6%,2.7%,-2.4,0.8,-29.0%,5.5%,20.6
COc1cc(OC)c(C(=O)NCCCN2CCOCC2)cc1OC,-19.5%,9.8%,-0.8,-4.3,8.6%,-5.3%[15.4 µM],5.2
COc1ccc(S(=O)(=O)N2CCCCC2)cc1NC(=O)c1cccs1,-2.4%,6.0%,-25.9,x,-4.1%,-5.8%,-11.0
COc1ccc(NC(=O)C/C(C)=N/NC(=O)c2cnccn2)cc1Cl,-2.2%,-0.8%,-9.7,-0.7,-15.8%,u,3.8
CC(C)NCCOCCOc1ccc(Cl)cc1Br,1.0%,8.7%,-36.1,2.9,-8.3%,-2.9%,2.4
CN(CC(=O)Nc1ccc(F)c(F)c1F)C(=O)c1n[nH]c(=O)c2ccccc12,0.4%,3.4%,-5.5,x,x,17.4%,x
CSc1ccc(/C=C/C(=O)OCC(=O)NC(C)C)cc1,x,-7.0%,-5.1,0.0,3.6%,-5.8%[15.4 µM],-13.3
O=S(=O)(c1cccc(F)c1)N1CCN(Cc2ccc3c(c2)OCO3)CC1,-2.6%,-7.8%,-13.4,2.0,3.9%,0.0%,-9.8
C[C@H](CO)N1C[C@H](C)[C@@H](CN(C)CC2CCCCC2)Oc2c(NS(=O)(=O)c3cn(C)cn3)cccc2C1=O,u,5.7%,-8.6,x,x,13.3%,x
O=C(CCN1C(=O)C2C3C=CC(C4CC34)C2C1=O)Nc1ccc(Cl)cc1O (stereo not given),-4.5%,5.8%,u,x,20.7%,-32.7%[inhibitor],-19.0
Cc1cc(C)c(NC(=O)CCCOC(=O)C2=COCCO2)c(C)c1,1.1%,-3.8%,-4.3,1.3,2.8%,-25.2%,-2.8
COCCn1c(C)cc(C(=O)COC(=O)c2cccnc2SC)c1C,-2.6%,-3.2%,3.6,x,x,-7.9%,x
COc1cc(CNCCc2ccc(F)cc2)ccc1OCc1ccc(Cl)nc1,0.0%,6.8%,-48.7,1.9,-13.6%,-62.7%[inhibitor],2.0
CC/C(=N\Nc1ccc([N+](=O)[O-])cc1[N+](=O)[O-])c1ccc(O)cc1,0.7%,-6.1%,-0.7,-5.6,5.1%,4.1%,21.1
Cc1ccc(-c2nnn(CC(=O)N(Cc3cccs3)C(C(=O)NC(C)(C)C)c3ccco3)n2)o1 (stereo not given),-2.7%,-11.7%,-6.5,11.0,u,u,-31.8
O=C(O)CSCC(=O)N1CCN(S(=O)(=O)c2ccccc2)CC1,x,x,-6.4,-5.1,1.2%,3.9%[15.4 µM],5.0
CCOc1cccc(CN2CCCC(C(=O)Nc3ccc(-c4ccn[nH]4)cc3)C2)c1O (stereo not given),0.8%,10.1%,-20.1,x,7.7%,-8.1%,6.4
COc1ccc(/C=N/NC(=O)c2cc[n+]([O-])cc2)cc1,x,0.7%,-4.8,-13.0,1.5%,u,-5.2

# Further entries.
SMILES,ClpP mod,gsp antagonist,D2 potentiator,Menin-MLL FL inh,Sfp PPTase inh,gsp agonist,TRPV1 PAM
O=S(=O)(c1ccc(F)cc1)N1CCN(C(=S)NCc2ccco2)CC1,-2.1%,0.1%,0.5,7.2,-29.1%,13.9%,-16.3
COc1ccccc1NC(=O)Cc1nnc(SCC(=O)c2ccccc2)n1C,x,8.6%,-2.5,6.3,3.3%,-4.3%[15.4 µM],-3.9
COc1ccc(/C=C/C(=O)c2cc(Br)ccc(=O)c2O)cc1,1.1%,-18.9%,-20.3,u,u,-8.9%,23.7
Cc1ccc(NC(=O)CSc2nc(-c3ccco3)nc3cc(=O)[nH]n23)c(Cl)c1,-3.8%,-37.2%,-19.7,x,u,13.9%,u
O=C(C[n+]1cccc2ccccc21)c1ccc(Cl)cc1,-20.0%,9.7%,-16.8,u,7.0%,-4.7%,-17.5
Cc1cccc(NC(=O)CCNS(=O)(=O)c2cccc3nsnc23)c1,-0.2%,3.7%,-7.1,0.6,21.7%,-36.5%[inhibitor],7.8
N#C/C(=C\c1c(N2CCCCC2)nc2ccccn2c1=O)S(=O)(=O)c1ccccc1,-6.7%,-20.4%,-10.5,-3.8,-3.7%,-3.5%[15.4 µM],-0.9
O[C@H]1C[C@H](c2ccccc2)N(CC2CCCCC2)C[C@@H]1n1cc(-c2ccc(F)cc2)nn1,-2.9%,x,4.4,x,x,11.9%,x
O=C(c1ccccc1CCc1ccccc1)N1CCOCC1,0.1%,0.5%,-6.9,1.7,-3.7%,-27.5%,-6.1
CN1/C(=C\C(=O)COC(=O)C2COc3ccccc3O2)C(C)(C)c2ccccc21 (stereo not given),-27.5%,-3.6%,3.5,4.6,10.0%,-15.3%,1.6
Cc1cc(C)n2nc[n+](C)c2n1,-0.6%,5.0%,-3.7,-4.0,2.6%,5.3%,-0.6
O=C(COc1ccccc1-c1ccccc1)NCc1ccco1,x,-4.3%,1.6,8.6,89.1µM*,u,-1.2
CCn1c(CCNC(=O)c2cccs2)nnc1SCC(=O)NC1CCCCC1,-0.1%,6.9%,-1.1,-0.3,10.8%,u,u
O=C(Oc1ccc(OC(=O)N2CCCCC2)cc1)N1CCCCC1,x,x,x,-3.0,13.1%,x,-4.5
